Compound activity from PubChem BioAssay.
HSV augment: increases HSV replication in cells; HSV replication augmentation in cells, fold increase; maximum fold increase; 220,000 tested, 0.005% active; AID 1956;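 active = peak rise of 1.5-fold or more in the series; tested in PC3 cells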;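 note: first round at 10 µM; read as green reporter fluorescence; hits show the peak of a series up to 25 µM; 1 = signal of infected wells without compound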
RGS16-Gao HTS: modulates binding between human RGS16 and Galphao; AID 1441; binding response (% of control), % at 10 µM; bead-based flow cytometry RGS16-Galphao binding, fluorescence; actives lie on both sides; 220,000 tested, 0.38% active;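 active = below 25% or above 175%, edge rows of some plates excepted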;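 note: Galphao activated by GDP with aluminum fluoride before binding; 100% = wells without compound and 0% = beads without RGS; some results beyond the cut were filed as inactive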
Target sequence (O15492 whole entry, looked up): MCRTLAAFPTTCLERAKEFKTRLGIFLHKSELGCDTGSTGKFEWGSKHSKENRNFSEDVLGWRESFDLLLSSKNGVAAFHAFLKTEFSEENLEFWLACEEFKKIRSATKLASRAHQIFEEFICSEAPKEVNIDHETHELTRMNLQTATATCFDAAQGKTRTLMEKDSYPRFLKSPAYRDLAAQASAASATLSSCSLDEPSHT
Target sequence (P09471 whole entry, looked up): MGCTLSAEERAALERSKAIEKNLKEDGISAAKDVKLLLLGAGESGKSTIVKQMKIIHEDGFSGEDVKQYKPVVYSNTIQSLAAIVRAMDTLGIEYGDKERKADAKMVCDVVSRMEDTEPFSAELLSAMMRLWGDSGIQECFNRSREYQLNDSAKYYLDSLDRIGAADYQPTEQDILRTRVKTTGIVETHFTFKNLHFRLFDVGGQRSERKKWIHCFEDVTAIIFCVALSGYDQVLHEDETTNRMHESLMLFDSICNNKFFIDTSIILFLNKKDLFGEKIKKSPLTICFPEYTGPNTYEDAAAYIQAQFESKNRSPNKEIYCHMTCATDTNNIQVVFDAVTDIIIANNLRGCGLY
PKD1 inh: blocks activity of human protein kinase D1; Q15139; PKD1 kinase fluorescence polarization assay; inhibition, %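 (about 10 µM by stock and volumes)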; 200,000 tested, 0.056% active;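 active = inhibition of 50% or more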;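 note: controls were vehicle for no effect and a reference inhibitor for full effect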
GALR2 agonist: agonists of human galanin receptor 2 (GALR2) | GALR2-expressing cells, agonist activation read-out | activation, %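 (tested at 5 µM)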 | 140,000 tested, 0.48% active | AID 803;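 active = above mean plus 3 SD of all compounds, about 5% in these data, not always enough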;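 note: 0% = vehicle buffer wells and 100% = reference agonist at full effect; tested in CHO reporter cells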
Target sequence (O43603 whole entry, looked up): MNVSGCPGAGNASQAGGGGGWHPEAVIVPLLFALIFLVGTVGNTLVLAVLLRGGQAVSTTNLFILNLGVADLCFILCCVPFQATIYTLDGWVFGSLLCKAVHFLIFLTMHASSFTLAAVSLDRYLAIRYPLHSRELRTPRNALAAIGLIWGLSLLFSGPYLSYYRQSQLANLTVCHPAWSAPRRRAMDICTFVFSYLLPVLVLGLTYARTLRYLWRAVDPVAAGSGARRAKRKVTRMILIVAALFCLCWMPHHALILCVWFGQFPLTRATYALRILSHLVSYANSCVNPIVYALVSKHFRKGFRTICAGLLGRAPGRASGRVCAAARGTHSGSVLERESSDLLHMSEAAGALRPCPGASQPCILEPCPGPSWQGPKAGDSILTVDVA
Insulin prom inh: TRM-6 insulin promoter activity inhibition; 130,000 tested, 0.9% active; TRM-6 cells (human fetal islet line), insulin promoter-eGFP reporter, imaging; reporter expression induced with tamoxifen; inhibition, % at 2 µM;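 active = inhibition above the mean plus 3 SD, with well images judged a real hit on visual review, cut at about 60% in these data, passing the limit was not always enough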
Insulin prom inh cell count: recorded beside Insulin prom inh, whose call it bears; normalized cell count, %; measured here: cell count, toxicity; reference of the scale not given here;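 cells exposed to compound for 48 h; stained nuclei by imaging scaled within each plate; lower means fewer cells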
HSV augment primary fold: further read-out of HSV augment, marked with its call; fold increase; compound at 10 µM; measured here: primary screen fold increase 10 uM; tested in PC3 cells;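 GFP signal in the first replicate; 1 = infected wells without compound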
* = called active by the depositor; i = inactive; nt = not tested or not shown.

mol	PKD1 inh	HSV augment primary fold	Insulin prom inh cell count	HSV augment	GALR2 agonist	Insulin prom inh	RGS16-Gao HTS
CCSc1ncc(C)cc1[N+](=O)[O-]	-6.0	0.96	150.0	i	-0.9	5.6	102.0
CCOc1ccc2nc(SC(C)C(N)=O)[nH]c2c1 (stereo unspecified)	-9.3	0.95	nt	i	0.1	nt	103.3
CCc1nc(SCc2cccnc2)c2c(=O)n(C)c(=O)n(C)c2n1	3.4	0.74	nt	i	-0.8	nt	100.3
O=C(Nc1ccc(N2CCCCC2)c(Cl)c1)c1cccnc1	11.1	0.8	108.9	i	-3.0	-109.7	95.2
COC(=O)c1ccc(C2c3c(oc4ccc(F)cc4c3=O)C(=O)N2CCO)cc1 (stereo unspecified)	-4.2	0.93	nt	i	-2.1	nt	107.8
NC(=S)NC1CC2C=CC1C2 (stereo unspecified)	nt	0.94	nt	i	nt	nt	99.1
COc1cc(C2/C(=C(/O)c3ccc(OCC(C)C)cc3)C(=O)C(=O)N2CCN(C)C)ccc1O (stereo unspecified)	1.3	0.71	89.4	i	-4.2	25.7	142.1
Cc1ccc2c(c1)N(Cc1cccc(Cl)c1)C(=O)c1cccnc1O2	-8.9	1.08	79.9	i	-1.1	-21.4	101.7
CC(=O)N1CC2(CC(=O)OC(C)C)CN(C(C)=O)CC(CC(=O)OC(C)C)(C1)C2=O	-2.2	0.92	nt	i	-1.3	nt	119.4
CC(C)c1onc(C(=O)NCc2ccc(F)cc2)c1[N+](=O)[O-]	-6.5	0.94	61.7	i	-0.8	-34.2	87.5
CCN(CC)S(=O)(=O)c1ccc(Cl)c(NC(=O)c2ccccc2C)c1	5.0	0.98	69.8	i	-0.7	3.6	95.2
CCNc1ccc2c(Cl)cc(=O)oc2c1	-14.1	nt	94.2	nt	6.3	22.6	102.5
O=C(N/N=C/C=C\c1ccccc1[N+](=O)[O-])c1ccco1	-8.4	0.85	nt	i	nt	nt	98.5
O=C(CSc1nnc(-c2ccccc2)n1Cc1ccco1)Nc1ccc(S(=O)(=O)N2CCCC2)cc1	-3.6	0.97	37.5	i	-3.4	37.1	108.6
Cc1cccc(NC(=S)NNC(=O)c2csc3c2CCCC3)c1	-10.3	0.93	nt	i	-2.4	nt	96.8
CCOC(=O)NN1C(=O)c2ccccc2NC1c1ccc(OC)c(OC)c1 (stereo unspecified)	-3.1	0.95	nt	i	nt	nt	101.2
CCc1cc2c(NCCC(=O)O)ncnc2s1	2.8	0.88	127.8	i	5.0	30.0	109.8
CCCCN(C)CCNC(=O)C(=O)c1c(C)[nH]c2ccccc12	-5.2	1.01	87.1	i	nt	-27.3	97.3
CCOC(=O)c1c(C)[nH]c(C(=O)/C(C#N)=C/c2ccc(OC)c(OC)c2)c1C	-2.6	1.22	100.0	i	-2.0	-183.3	98.5
c1ccc(-c2csc(-c3ccc(-c4csnn4)cc3)n2)cc1	nt	0.9	nt	i	nt	nt	105.1
N/C(Cc1nc(-c2ccc(F)cc2)cs1)=N\O	nt	0.99	nt	i	nt	nt	98.2
Cc1ccc2cccc(OCC(=O)NCc3ccco3)c2n1	-24.8	0.95	nt	i	-1.6	nt	97.6
CC1CN(C(=O)c2cccc(COc3ccc(Br)cc3)c2)CC(C)O1 (stereo unspecified)	-2.1	0.96	134.5	i	-0.4	40.6	100.3
Cn1c(SCc2ccccc2)nnc1-c1ccc2c(c1)OCO2	-11.6	0.84	119.9	i	-1.5	-185.7	97.2
CC(C)(C)NC(=O)/C=C/c1cccc(C(F)(F)F)c1	7.0	1.01	149.4*	i	-1.4	60.0*	104.9
Cc1cc(N2C(=O)CC(N3CCN(C(c4ccccc4)c4ccccc4)CC3)C2=O)no1 (stereo unspecified)	-18.2	1	104.9	i	-1.8	47.6	85.1
Cc1ccc(NC(=O)Nc2ccc(C(=O)N3CCOCC3)cc2)cc1	-4.0	0.95	57.6	i	-1.3	10.7	103.1
O=C(N/N=C/c1cccc2ccccc12)c1n[nH]c2c1CCCC2	0.7	0.72	33.0	i	nt	-150.0	100.8
Cc1cccc(Oc2nc(CN3CCOCC3)nc3sc4c(c23)CCCC4)c1	-5.5	0.85	109.3	i	1.2	35.7	100.3
Cc1[nH]n(-c2ccccc2)c(=O)c1-c1cccc(Cl)c1	-1.5	0.89	51.4	i	-2.9	-40.0	99.0

Looked up one by one from the entries so far, three records:
mol	PKD1 inh	HSV augment primary fold	Insulin prom inh cell count	HSV augment	GALR2 agonist	Insulin prom inh	RGS16-Gao HTS
O=C(CSc1nnc(-c2ccccc2)n1Cc1ccco1)Nc1ccc(S(=O)(=O)N2CCCC2)cc1	-3.6	0.97	37.5	i	-3.4	37.1	108.6
CCNc1ccc2c(Cl)cc(=O)oc2c1	-14.1	nt	94.2	nt	6.3	22.6	102.5
COc1cc(C2/C(=C(/O)c3ccc(OCC(C)C)cc3)C(=O)C(=O)N2CCN(C)C)ccc1O (stereo unspecified)	1.3	0.71	89.4	i	-4.2	25.7	142.1

(more compounds)
mol	PKD1 inh	HSV augment primary fold	Insulin prom inh cell count	HSV augment	GALR2 agonist	Insulin prom inh	RGS16-Gao HTS
CCCNC(=O)c1cc(S(=O)(=O)N2CCc3ccccc32)ccc1F	-6.0	1.05	117.4	i	-0.7	-25.7	98.6
CCC(c1nnnn1CS(=O)(=O)c1ccc(C)cc1)N1CCN(c2nc3ccccc3s2)CC1 (stereo unspecified)	-6.6	0.83	67.2	i	-1.2	48.6	105.0
CCOc1ccc(N(CC(=O)Nc2ccc3c(c2)OCCO3)S(=O)(=O)c2c(C)noc2C)cc1	5.8	1.04	nt	i	-1.4	nt	46.6
O=C(Nc1ccccn1)c1ccc2c(c1)S(=O)(=O)c1ccccc1C2=O	-4.4	0.91	70.7	i	-1.1	-10.0	114.5
CCC1Oc2ccc(C)cc2N(CC(=O)NCc2ccco2)C1=O (stereo unspecified)	6.5	1.06	nt	i	nt	nt	142.1
COCCN(Cc1cc2cc3c(cc2[nH]c1=O)OCO3)C(=O)c1cccs1	-7.2	1.02	nt	i	-2.9	nt	110.2
CCOc1ccc(CC(=O)NNC(=S)NC2CCCCC2)cc1OCC	-9.0	1.08	nt	i	-1.7	nt	105.7
CCC1CCC2(CC1)NC(CO)(CO)CO2 (stereo unspecified)	-5.8	0.97	nt	i	0.1	nt	318.1
O=C(COc1ccc([N+](=O)[O-])cc1)Nc1ccncc1	8.1	1.19	78.9	i	nt	5.9	95.2
C=CCNC(=O)COc1ccccc1C#N	-7.2	0.83	nt	i	nt	nt	101.0
Cc1ccc(/C=N/n2c(C)nnc2C)s1	-3.1	0.93	nt	i	0.1	nt	114.4
O=C(c1cc(-c2ccc(Cl)c(Cl)c2)on1)N1CCCC1	-2.5	0.93	nt	i	-0.5	nt	105.3
O=C(NC1CC2CCCC(C1)N2S(=O)(=O)c1ccccc1)c1ccco1 (stereo unspecified)	6.3	0.97	127.9	i	-1.4	48.6	98.6
COc1ccc(C(=O)N=c2sc3c(C)ccc(OC)c3n2C)cc1	5.0	0.92	nt	i	-1.7	nt	90.7
CC(Sc1nncn1C)C(=O)Nc1cc(C(F)(F)F)ccc1N1CCOCC1 (stereo unspecified)	-7.5	0.86	135.0	i	nt	0.0	110.6
O=C(C[n+]1cc(-c2ccccc2)n2c1CCC2)Nc1nc(-c2ccccc2)cs1	2.5	0.97	88.3	i	-1.6	-11.8	125.5
c1cn(C23CC4CC(CC(C4)C2)C3)cn1	1.9	0.94	50.5	i	5.6	-10.7	101.4
O=C(/C=N/O)Nc1ccc(F)cc1	0.3	1.01	nt	i	-3.0	nt	105.8
CCOc1ccc(C(=O)Nc2cc(C)c3c(=O)oc4ccccc4c3n2)cc1	-5.2	1.09	nt	i	-2.4	nt	100.8
CC1NC(C)(C)Cc2c1ccc1ccccc21 (stereo unspecified)	-4.2	0.78	nt	i	nt	nt	104.5
COc1ccc(C(=O)Nc2ccc(C(F)(F)F)n(C)c2=O)cc1	1.1	0.94	nt	i	-0.7	nt	103.5
CCOC(=O)N1CCC(NC(=O)C(CC(C)C)NC(=O)C2CCCCC2)CC1 (stereo unspecified)	-12.6	0.92	98.9	i	-1.3	26.9	104.4
CC1CCCN(C(=O)C2CCN(S(=O)(=O)c3cccc4cccnc34)CC2)C1 (stereo unspecified)	-7.1	0.81	nt	i	-0.7	nt	102.3
CCN(CC)C(=O)C(=O)c1cc(C)n(-c2ccc(F)cc2)c1C	-9.2	0.94	nt	i	nt	nt	104.1
NC(=O)C1CCN(c2ccc(S(=O)(=O)N3CCCCC3)cn2)CC1	1.4	0.93	nt	i	nt	nt	102.5
CCOC(=O)/C(C#N)=C1/C=Cc2ccccc2N1CC	-14.0	0.91	139.5	i	-0.5	15.2	99.9
O=C(Cc1ccccc1)NS(=O)(=O)c1ccc(N=NN2CCOCC2)cc1	-10.0	0.79	nt	i	nt	nt	101.3
NC(=O)CN1CCOCCOCCN(CC(N)=O)CCOCCOCC1	1.0	0.98	133.8	i	-1.1	2.3	111.4
Cc1ccc(S(=O)(=O)NC2c3cccc4cccc(c34)C2Sc2n[nH]c(N)n2)cc1 (stereo unspecified)	-3.8	1.09	54.2	i	0.0	-67.7	120.5
COc1ccc(CCN2C(=O)CC(N3CCN(c4ccccn4)CC3)C2=O)cc1OC (stereo unspecified)	-9.0	0.9	67.7	i	-0.3	27.0	101.2
O=C(OCc1ccc2c(c1)OCO2)c1cccc(S(=O)(=O)N2CCCCC2)c1	-7.4	0.9	100.0	i	-0.5	-37.9	108.3
COc1ccc(/C=N/NC(=O)CN(C2=NS(=O)(=O)c3ccccc32)c2ccccc2)cc1OC	-4.1	0.95	65.6	i	0.3	-13.8	110.6
CC(C)(C)c1ccc(NC(=O)COC(=O)C2(C)CC2(Cl)Cl)cc1 (stereo unspecified)	5.5	0.88	121.0	i	nt	14.3	97.3
CC(Sc1nnc(-c2ccc(Cl)cc2Cl)n1Cc1ccccc1)C(=O)Nc1nccs1 (stereo unspecified)	-2.9	0.77	116.0	i	-3.0	5.4	98.2
COC(=O)Cc1cc(=O)n(-c2nc3ccccc3s2)[nH]1	4.0	0.95	120.4	i	-2.0	-22.2	98.9
CCOC(=O)Cn1nnnc1CN(Cc1cccs1)Cc1cc2cc(C)ccc2[nH]c1=O	-6.8	0.79	116.3	i	-1.6	-34.8	77.7
COc1ccc(NC(=O)Cn2nnc(C(=O)NCc3ccccc3OC)c2N)cc1Cl	-4.6	0.96	100.5	i	0.6	8.6	96.9
Cc1ccc(N2C(=O)C3CCC(c4ccccc4)CC3C2=O)cc1 (stereo unspecified)	-9.1	0.98	114.9	i	0.5	0.0	104.0
COc1ccc(NC(=O)CC2C(=O)N(c3ccc(OC)cc3)C(=O)N2CCN2CCN(C)CC2)cc1 (stereo unspecified)	5.3	1.06	44.0	i	-0.9	-33.3	99.6
NS(=O)(=O)c1ccc(NC(=O)COc2ccc(C(=O)c3ccc(F)cc3)cc2)cc1	nt	0.92	nt	i	nt	nt	100.4
Cn1ccnc1SCC(=O)Nc1cccc(O)c1	5.7	1.01	85.0	i	-3.0	37.1	99.5
O=c1/c(=C/c2ccc(O)cc2)sc2nc3cc(Br)cnc3n12	2.9	0.97	203.6	i	nt	-40.0	95.5
O=C(NCCCNc1ccc(C(F)(F)F)cc1[N+](=O)[O-])c1ccc(F)cc1	0.7	0.96	87.6	i	-1.6	-18.8	105.8
